2A StopGo: FMDV 2A StopGo reporter, luciferase signal | human cells with a luciferase reporter of 2A StopGo recoding; control for the full effect not named in the record | Potency, µM (series often up to 57.9 µM), without a hit: at the highest dose signal change, negative = less light | hit rate 1.2% among 410,000; active = well fitted falling curve with a large enough effect; inconclusive = small, poorly fitted or top-dose-only effect; inactive = no such curve, though single readings can be large or run the other way; tested in HEK293T cells; further: on the % scale 0 is the no-effect control and ±100 the full control effect; nearly all actives have a fitted effect of over 45% in size; luciferase light after 4 h
Cruzain inh Det: blocks cruzain activity in presence of Triton detergent. purified cruzain, Z-FR-AMC fluorescence, 0.01% Triton. Potency, µM, for the others: max response, negative = inhibition, usual class: inhibitors. hit rate 0.43% among 200,000. AID 1478; active means well fitted curve in the direction sought with a large enough effect; inconclusive means small, poorly fitted or top-dose-only effect, or another doubt; inactive means no such curve, though single readings can be large; an effect the other way counts as inactive or inconclusive;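 further: plate controls were neutral wells for no effect and buffer without enzyme for full effect; nearly all actives have a fitted effect of over 40% in size; top concentration of the series not given in the record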
Target sequence (P25779 123-467 limits assumed): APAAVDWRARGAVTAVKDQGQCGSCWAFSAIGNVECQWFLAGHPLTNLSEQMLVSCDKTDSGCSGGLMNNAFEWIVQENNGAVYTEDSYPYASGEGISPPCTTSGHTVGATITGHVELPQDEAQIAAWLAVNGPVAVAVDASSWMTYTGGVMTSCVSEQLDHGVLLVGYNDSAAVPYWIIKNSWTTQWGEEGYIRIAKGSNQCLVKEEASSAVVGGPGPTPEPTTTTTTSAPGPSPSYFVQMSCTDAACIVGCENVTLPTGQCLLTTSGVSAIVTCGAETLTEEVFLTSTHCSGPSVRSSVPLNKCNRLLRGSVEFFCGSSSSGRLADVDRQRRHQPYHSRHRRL
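Purified cruzain (1.5 nM final) was preincubated with compounds for 15 min at room temperature in 100 mM sodium acetate pH 5.5, 5 mM DTT, 0.01% Triton X-100. Reaction started with 2 uM Z-FR-AMC; AMC fluorescence change over 60 s gave activity.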
NS1 inh: blocks influenza NS1 protein function | S. cerevisiae slowed by influenza A NS1, growth recovery by OD600 | Potency, µM (doses to about 46.1 µM), for the others: at the top dose activity, positive = more growth | hit rate 0.4% among 270,000; further: actives are rising curves; nearly all actives have a fitted effect of over 50% in size
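Growth recovery, yeast-based: influenza A NS1 expressed in S. cerevisiae causes slow growth, and suppressors are detected by OD600. The parent strain without NS1 is used as positive control.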
Cruzain noTriton: cruzain (T. cruzi) inhibition without detergent; purified cruzain, Z-FR-AMC fluorescence, no detergent; hit rate 2.3% among 200,000; P25779; Potency, µM, for the others: max response, negative = inhibition, usual class: inhibitors; AID 1476; active means well fitted curve in the direction sought with a large enough effect; inconclusive means small, poorly fitted or top-dose-only effect, or another doubt; inactive means no such curve, though single readings can be large; an effect the other way counts as inactive or inconclusive;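 further: plate controls were enzyme without inhibitor for no effect and buffer without enzyme for full effect; nearly all actives have a fitted effect of over 40% in size; top concentration of the series not given in the record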
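Purified cruzain at 1.5 nM, pre-incubated 15 min with compound at room temperature in 100 mM sodium acetate pH 5.5, 5 mM DTT, 0.00005% Triton X-100. Reaction started with 2 uM Z-FR-AMC; AMC fluorescence increase over 60 s gives rate.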
LASV entry inh: blocks Lassa virus binding to or entry into cells. Lassa virus pseudotype entry inhibition, cell reporter; control for the full effect not named in the record. Potency, µM (series often up to 37.9 µM), for the others: top-dose activity change, negative = inhibition, usual class: inhibitors. hit rate 1.2% among 300,000. AID 540256; active means well fitted inhibition curve with a large enough effect; inconclusive means small, poorly fitted or top-dose-only effect, or effect the other way; inactive means flat fitted curve, though single readings scatter; tested in HEK293 cells; further: on the % scale 0 is the no-effect control and ±100 the full control effect; nearly all actives have a fitted effect of over 50% in size; luciferase read-out
RE007 growth inh: less growth of the S. pombe RE007 Vpr strain | S. pombe RE007 Vpr strain, BacTiter-Glo ATP luminescence, 24 h; control for the full effect not named in the record | Potency, µM (highest dose often 92.2 µM), without a hit: at the highest dose activity change, negative = less growth | hit rate 0.21% among 360,000 | AID 651644; active = well fitted falling curve with a large enough effect; inconclusive = small, poorly fitted or top-dose-only effect; inactive = no such curve, though single readings can be large or run the other way;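 further: on the % scale 0 is the no-effect control and ±100 the full control effect; nearly all actives have a fitted effect of over 50% in size; the assay follows cell death caused by Vpr and the record does not say whether a fall means rescue or toxicity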
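Fission yeast RE007 carrying one integrated HIV-1 vpr copy, seeded at OD 0.01 in PMG+AL medium with 23 nL pinned compound. Grown 24 h at 30 degrees; viability read by BacTiter-Glo luminescence after 5 min.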
SARS PLpro yeast: blocks SARS-CoV papain-like protease in a yeast assay. S. cerevisiae expressing SARS-CoV PLpro, growth rescue; control for the full effect not named in the record. hit rate 0.19% among 330,000. AID 485353. Potency, µM (series often up to 32.9 µM), for the others: at the highest dose activity, positive = growth rescue; further: 0% is about no effect; nearly all actives have a fitted effect of over 55% in size; growth read by luminescence after 48 h
Marburg entry inh: inhibitors of Marburg virus binding or cell entry. Marburg virus pseudotyped entry inhibition, cell reporter; control for the full effect not named in the record; about a third of the inactives were read at about 46 µM. Potency, µM (highest dose often 37.8 µM), for inactives: top-dose activity change, negative = inhibition, usual class: inhibitors. hit rate 1.8% among 300,000. AID 540276; active = well fitted inhibition curve with a large enough effect; inconclusive = small, poorly fitted or top-dose-only effect, or effect the other way; inactive = flat fitted curve, though single readings scatter; tested in HEK293 cells; about a fifth of its hits are not listed in these tables; further: on the % scale 0 is the no-effect control and ±100 the full control effect; luciferase read-out
The depositor's hits bear a star; ? = inconclusive; nt = no result given; & = joins results of further samples; [ ] = remark or other dose. Unless noted, the call rests on the fitted dose curve; in most records, active means well fitted rising curve with a large enough effect; inconclusive means small, poorly fitted or top-dose-only effect; inactive means no such curve, though single readings can be large or run the other way. Potency means the concentration at half of the fitted maximal effect.

SMILES | 2A StopGo | Cruzain inh Det | NS1 inh | Cruzain noTriton | LASV entry inh | RE007 growth inh | SARS PLpro yeast | Marburg entry inh
COc1cc(OC)c(-c2oc3ccccc3c(=O)c2O)c(OC)c1 | -11% | nt | nt | nt | -22% | 6% | nt | ?
CCOC(=O)C(CC)Sc1ccc2nnc(-c3cccnc3)n2n1 (stereo not given) | -7% | nt | nt | nt | 18% | -2% | 1% | 22%&22%
Nc1n[nH]c(S(=O)(=O)CCCc2ccccc2)n1 | -2% | 2.1% | 9% | 0% | 11% | 18% | 6% | 7%
CCC(=O)n1nc(NCc2ccc(OC)c(OC)c2)nc1NCc1ccc(OC)c(OC)c1 | 18µM* | 4.1% | -22% | ? | -2% | 0% | 1% | -7%
O=C(CSCCNS(=O)(=O)c1ccccc1)Nc1ccccc1 | 4% | 4.6% | -7% | 1% | -6% | 8% | 0% | -15%[46.1 µM]
COc1cc(NC(=O)c2ccc(C(=O)Nc3cc(OC)c(Cl)cc3OC)cc2)c(OC)cc1Cl | -12% | 1.0% | nt | 7% | 4%[46.1 µM] | nt | nt | nt
COc1ccccc1/C=C(/C(=O)OCC(=O)Nc1ccccc1C)c1ccccc1 | ? | -6.9% | -8% | -8% | ? | 8% | -15% | 0%
Cc1noc(NS(=O)(=O)c2ccc(NC(=O)CSc3n[nH]c(-c4ccccc4)n3)cc2)c1C | 3% | -4.4% | -58% | -26% | 19% | -3% | 6% | 2%&0%
COc1ccc(CNC(=O)Cn2ccc([N+](=O)[O-])n2)cc1OC | 12% | nt | 1% | nt | -2%[46.1 µM] | 2% | 1% | 0%[46.1 µM]
CC(C)c1nnc(NC(=O)c2c(O)c3cccc4c3n(c2=O)CCC4)s1 | -10% | 4.2% | -34% | ? | 22% | -2% | 3% | -18%
O=C(CCc1n[nH]c(=O)[nH]c1=O)N/N=C/c1ccco1 | -5% | nt | nt | nt | 24%[46.1 µM] | -8% | 0% | ?
COc1cccc(N2CCN(S(=O)(=O)c3c(C)[nH]c(C)c3C(=O)N3CCCCC3)CC2)c1 | -1% | nt | 13% | nt | 25%[46.1 µM] | 9% | -6% | ?
CCN(CC)CCNC(=O)C(=O)NCC(c1cccnc1)N1CCN(c2ccccc2)CC1 (stereo not given) | -16% | 2.2% | nt | ? | 2%[46.1 µM] | nt | nt | nt
COc1ccccc1C(=O)N1CCN(CCNC(=O)C(=O)Nc2ccc(Br)c(C)c2)CC1 | ? | nt | -23% | nt | nt | -8% | -1% | nt
O=C(Nc1ccc(Oc2ccccc2)cc1)C1CCCO1 (stereo not given) | nt | -4.6% | -13% | 3% | -29% | 7% | -5% | 8%
COc1ccc(C(C)=O)cc1COC(=O)CCC(=O)N(CC(C)C)c1c(N)n(CC(C)C)c(=O)[nH]c1=O | -17% | nt | nt | nt | -1% | 2% | 5% | 36%
Cc1cc(N2CCN(C(=O)/C=C/C(=O)O)CC2)c2ccccc2n1 | -8% | nt | 4% | nt | nt | 0% | 1% | nt
Cn1c(NC(=O)CCC2CCCCC2)cc(=O)n(C)c1=O | 48%[activator] | -3.8% | -54% | 0% | nt | 8% | -4% | nt
COc1ccc(C2CC(C(F)(F)F)n3ncc(C(=O)NCc4cccnc4)c3N2)cc1OC (stereo not given) | 9% | 4.4% | -12% | -5% | 0% | -1% | 1% | -3%
COc1ccc(C(=O)/C=C/Nc2ccc(S(=O)(=O)Nc3cc(OC)nc(OC)n3)cc2)c(OC)c1 | 50%[activator] | nt | 5% | nt | ? | -21% | 0% | nt
O=C(NCCNC(=O)c1cccc(O)c1)c1cccc(O)c1 | -11% | nt | 2% | nt | 8% | 0% | -2% | 3%[46.1 µM]
COc1cccc(NC(=O)CSC2=Nc3ccccc3C3=NC(CC(=O)NCc4ccccc4OC)C(=O)N23)c1 (stereo not given) | -23% | -3.1% | nt | ? | -4%[46.1 µM] | nt | nt | nt
COc1ccc(S(=O)(=O)N2CCC(C(=O)NCC3CCCO3)CC2)cc1OC (stereo not given) | -8% | nt | 4% | nt | -2% | -8% | 1% | -8%[46.1 µM]
CCOc1ccc(CNn2cnnc2)cc1 | 6% | nt | -7% | nt | -4%[46.1 µM] | -3% | -3% | 21%[46.1 µM]
O=S(=O)(c1ccc(N2CCCC2)nc1)N1CCOCC1 | -14% | -5.7% | -8% | -3% | 3% | -20% | -1% | 9%[46.1 µM]

Some values from the results shown.
For 2A StopGo, `COc1cccc(NC(=O)CSC2=Nc3ccccc3C3=NC(CC(=O)NCc4ccccc4OC)C(=O)N23)c1` (stereo not given) is listed with -23%
For NS1 inh, `Nc1n[nH]c(S(=O)(=O)CCCc2ccccc2)n1` is listed with 9%

Of the compounds above, 2 have an aryl thioether with sulfur outside any ring:
SMILES | 2A StopGo | Cruzain inh Det | NS1 inh | Cruzain noTriton | LASV entry inh | RE007 growth inh | SARS PLpro yeast | Marburg entry inh
CCOC(=O)C(CC)Sc1ccc2nnc(-c3cccnc3)n2n1 (stereo not given) | -7% | nt | nt | nt | 18% | -2% | 1% | 22%&22%
Cc1noc(NS(=O)(=O)c2ccc(NC(=O)CSc3n[nH]c(-c4ccccc4)n3)cc2)c1C | 3% | -4.4% | -58% | -26% | 19% | -3% | 6% | 2%&0%

(continued)
SMILES | 2A StopGo | Cruzain inh Det | NS1 inh | Cruzain noTriton | LASV entry inh | RE007 growth inh | SARS PLpro yeast | Marburg entry inh
CS(=O)(=O)N1CCc2cc(-c3csc(NC(=O)Cc4cccs4)n3)ccc21 | 13µM* | 3.0% | 11µM* | 20µM* | 13µM* | 9% | 0% | ?
Oc1c(C=Nc2cccc3cccnc23)sc2ccccc12 | nt | -4.8% | -69% | -3% | nt | nt | ? | nt
COc1ccc(CCNC(=O)CC2Nc3cc(C)c(C)cc3NC2=O)cc1OC (stereo not given) | -4% | -19% | ? | -4% | 20% | 3% | -7% | 1%
CC(C)OCCCNC(=O)CN1C(=O)c2ccccc2Sc2ncccc21 | -13% | -1.5% | nt | 8% | 4%[46.1 µM] | nt | nt | nt
Cn1c(COc2ccccc2)nnc1SCc1nc2ccccc2[nH]1 | -4% | 2.1% | 12% | -16% | 27% | 14% | ? | 18%
COc1cc(OC)c(C=NNC(=S)NC23CC4CC(CC(C4)C2)C3)c(OC)c1 | -28% | nt | nt | nt | ? | 12% | nt | -9%
Cc1cc(C(=O)OCC(=O)NC2CC2)ccc1[N+](=O)[O-] | -9% | nt | nt | nt | 11% | 8% | 0% | ?
CC(=O)C1=C(C)Nc2ncnn2C1c1cccc(OCc2ccccc2)c1 (stereo not given) | ? | -4.5% | -2% | -4% | nt | -5% | -2% | nt
Cc1cccc(C)c1NC(=O)CN(C)C(=O)c1cccc(S(=O)(=O)N2CCN(C)CC2)c1 | 25% | nt | nt | nt | 1% | 8% | 5% | -10%[46.1 µM]
CCc1cc(=O)oc2cc(OCC(=O)OC)c(Cl)cc12 | -24% | 1.5% | -19% | -6% | -1% | 8% | -1% | 3%
COc1cc(C(=O)N2CCN(c3cccc(C(F)(F)F)c3)CC2)ccc1OCC(=O)N1CCOCC1 | ? | nt | nt | nt | 6% | 2% | nt | ?
Fc1ccccc1Cc1noc(CN2CCN(C/C=C/c3ccccc3)CC2)n1 | -23% | nt | -2% | nt | nt | -4% | 1% | nt
Cc1cccc(-n2c(C)c(-c3ccccc3)[nH]c2=S)c1 | -16% | nt | -8% | nt | -5% | -12% | 27% | -1%
O=C(c1ccc(-c2cccc(Cl)c2)o1)N1CCN(c2ccc([N+](=O)[O-])cc2)CC1 | 0% | -4.8% | -3% | ? | -28% | -14% | 4% | 14%
O=C1S/C(=C/c2ccccc2F)C(=O)N1CCN=C1NS(=O)(=O)c2ccccc21 | ? | -4.7% | 7% | -7% | -17% | -2% | -7% | -9%
COc1ccc(Cl)cc1NC(=S)NCCc1c[nH]c2ccccc12 | -19% | -8.1% | -47% | -9% | -10% | 7% | -2% | -19%
COCc1cc(C)nc(SCC(=O)Nc2cccc3cccnc23)c1C#N | -13% | -2.5% | 3% | -10% | 3% | -5% | -12% | 9%
CCN(CC)c1ccc(NC(=O)c2cc(C)nc3c2c(C)nn3-c2ccc(C)cc2)c(C)c1 | -22% | 0.1% | nt | 4% | ? | nt | nt | nt
O=C(CNC(=O)c1ccc(F)cc1)NCc1ccc(S(=O)(=O)N2CCOCC2)cc1 | -6% | nt | nt | nt | 4%[46.1 µM] | 23% | 0% | 11%
CCN(C(=O)c1cc(Cl)ccc1OC)C1CCCCC1 | ? | 4.4% | -2% | -3% | 10% | 1% | -1% | -14%
Cc1cc(C)c2c(c1)c1nnc(SCCN3CCCCC3)nc1n2C | -21% | nt | -2% | nt | -8%[46.1 µM] | -24% | 4% | ?
Cc1ccnc2nc(C(=O)OCC(=O)N3CC(C)CC(C)C3)nn12 (stereo not given) | -4% | nt | nt | nt | -24% | 3% | 2% | 2%[46.1 µM]
CCOC(=O)CN1C(=O)C(O)=C(C(C)=O)C1c1ccccc1 (stereo not given) | -5% | -0.5% | -3% | -2% | 7% | 4% | -1% | 0%[46.1 µM]
Cc1cc(C)c(NC(=O)CSc2nc(=O)n(CCN3CCOCC3)c3c2CCC3)c(C)c1 | -6% | nt | nt | nt | 8% | 0% | nt | 14%
O=C(COc1coc(CN2CCN(c3ccccc3)CC2)cc1=O)NC1CCCC1 | -24% | nt | nt | nt | 11% | -6% | 5% | -23%

Part of the list above in order of heavy-atom count, low to high.
SMILES | 2A StopGo | Cruzain inh Det | NS1 inh | Cruzain noTriton | LASV entry inh | RE007 growth inh | SARS PLpro yeast | Marburg entry inh
CCN(C(=O)c1cc(Cl)ccc1OC)C1CCCCC1 | ? | 4.4% | -2% | -3% | 10% | 1% | -1% | -14%
CCOC(=O)CN1C(=O)C(O)=C(C(C)=O)C1c1ccccc1 (stereo not given) | -5% | -0.5% | -3% | -2% | 7% | 4% | -1% | 0%[46.1 µM]
O=C(COc1coc(CN2CCN(c3ccccc3)CC2)cc1=O)NC1CCCC1 | -24% | nt | nt | nt | 11% | -6% | 5% | -23%

Assay outcomes deposited in PubChem by National Center for Advancing Translational Sciences (NCATS).
